Screening data: PubChem BioAssay, PCMD
Biofilm kill mix: mixture kills Candida albicans biofilm cells; actives 0.02% (n = 120,000); AID 1242; C. albicans biofilm persisters + clotrimazole, fluorescence viability; primary screen in compound mixtures of four per well; inhibition, % at 7.6 µM;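 active means inhibition above 30.3% in the primary screen of four-compound pools, then above 30% when the compound was retested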;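 further: compounds exposed to preformed 24 h biofilms for 48 h; the number belongs to the whole pool; some results filed as inactive read as strong as hits; inactives centre near 12; 0% = biofilm with clotrimazole alone and 100% = kill control; retested singly at about 60 µM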
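Incubation: 24 h biofilm formation, then 48 h compound exposure, 37 °C | Material: C. albicans biofilms | Buffer or medium: RPMI/MOPS medium, pH 7.0 | Measured by: 2-h Alamar Blue fluorescence, 535/590 nm excitation/emission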
Starred values were filed as active, the others as inactive. A portion of the library. The share of hits here may be higher or lower than overall.

Compound	Biofilm kill mix
CC1(C)C(=O)Nc2ccccc2N1C(=O)CN1C(=O)NC(CCc2ccccc2)C1=O (stereo unspecified)	12.1
CC1CCCN(CCC(=O)Nc2ccc(Br)cc2)C1 (stereo unspecified)	16.9
CN(C(=O)CSc1nnc(-c2ccc(Cl)cc2)n1CC1CCCO1)C1CCS(=O)(=O)C1 (stereo unspecified)	9.4
COc1cc(OC)c(CNC2CCCCCC2)cc1Br	-8.3
CC(OC(=O)c1snc(C(=O)NC2CCCCC2)c1N)C(=O)NC(C)(C)C (stereo unspecified)	3.8
COc1ccc(/C=N/n2c(=O)[nH]c3c([nH]c4ccc(Cl)cc43)c2=O)cc1CN1CCCCC1	17.3
CSc1ccc(Cl)c(C(=O)Nc2nccs2)c1	20.8
CCOC(=O)c1cc2c(=O)n3ccccc3nc2n(Cc2ccco2)c1=NC(=O)c1ccc(OC)cc1OC	18.3
CC1C2NC(=O)N(Cc3ccccc3)C1(C)Oc1ccccc12 (stereo unspecified)	10.2
COC(=O)c1ccccc1N=Nc1c(C)noc1C	14.9
CNc1c(C(=O)O)ccc2c1C(=O)c1ccccc1C2=O	-1.6
Cc1ccc2nc(SCC(=O)Nc3cccc(S(=O)(=O)N(C)C)c3)[nH]c2c1	11.1
O=C(Nc1ccc(C(F)(F)F)cc1)c1cnc(N2CCN(c3ccccn3)CC2)c2ccccc12	24.1
Cc1noc(C)c1COC(=O)c1cnc(Cl)c(Cl)c1	12.8
COc1cccc2c1C(=O)C=C(C)C2=O	7.7
COc1ccc(CNC(=O)COC(=O)c2ccc(F)c(S(=O)(=O)N3CCCCC3)c2)cc1OC	-4.0
O=C(NCc1ccc(F)cc1)c1ccc(Br)o1	8.2
CCN(CC)C(=O)Cn1cc(C(=O)C2CC2)c2ccccc21	11.8
CCOc1ccc(S(=O)(=O)N2Cc3ccccc3CC2C(=O)O)cc1 (stereo unspecified)	19.0
CC1(C)Cc2nc(Cl)c(C(N)=O)cc2CO1	14.6
COC(=O)c1ccc(CSc2cc(C)c3cc(C)cc(C)c3n2)o1	-2.7
Cc1ccc(C)c(N2C(=O)c3ccc(C(=O)OCC(=O)c4c(N)n(C)c(=O)n(C)c4=O)cc3C2=O)c1	11.0
COc1cccc(OCc2nnc(SCC(=O)N3c4ccccc4Sc4ccc(Cl)cc43)o2)c1	11.8
CC(=O)CCc1ccc(OCCCCN2CCC(Cc3ccccc3)CC2)cc1	17.5
Cc1nc(-c2ccc(Cl)cc2)sc1C1(C)CC(c2cccc([N+](=O)[O-])c2)=NO1 (stereo unspecified)	18.6
CC1=C(C#N)C(c2ccccc2)C2=C(N1)c1ccccc1C2=O (stereo unspecified)	13.9
O=C1CC(c2ccccc2)CC(O)=C1C=Nc1ccccc1O (stereo unspecified)	7.3
N#Cc1cccc(N=Cc2c(O)ccc3ccccc23)c1	7.8
O=C(CSc1nc2[nH]ncc2c(=O)[nH]1)NCCc1ccccc1	14.8
O=C(Oc1c(CN2CCOCC2)cc(Cl)c2cccnc12)c1ccccc1Br	14.5
O=C(NCc1ccco1)/C(=C/c1cccc(C(F)(F)F)c1)c1nc2ccccc2[nH]1	14.6
CCSc1n[nH]c(=S)s1	15.9
O=C(N/N=C1\CCCc2ccccc21)c1ccccc1[N+](=O)[O-]	7.0
CC1CCCC(NC(=O)COC(=O)/C=C/c2ccc3c(c2)OCO3)C1C (stereo unspecified)	5.9
CCn1cnc2sc(C(=O)Oc3ccc(Br)cc3)c(C)c2c1=O	18.1
Cc1cccc(C(=O)NC(=S)NNC(=O)Cc2ccccc2)c1	10.2
Cc1ccc(C(=O)Nc2nnc(COc3ccccc3)s2)cc1	22.3
CCOC(=O)C1=C(C)Nc2ccccc2S1	-2.2
CC(C)C(C(=O)Nc1ccc(S(N)(=O)=O)cc1)N1C(=O)c2ccccc2C1=O (stereo unspecified)	5.7
CC(C)=NNC1=NC(C)(C)Cc2ccccc21	17.8
CCCn1nnc(NC(=S)NC(=O)Cc2ccccc2)n1	5.2
CCN(CC)CCNC(=O)Cn1cnc2sc(C)c(S(=O)(=O)N3CCN(c4ncccn4)CC3)c2c1=O	24.0
COc1ccc(N2CCN(C(CNC(=O)C(=O)NCCCn3ccnc3)c3ccco3)CC2)cc1 (stereo unspecified)	-12.8
COc1cccc(S(=O)(=O)NCc2ccc(C(=O)Nc3ccc(Cl)cc3)cc2)c1	10.5
CC1Cc2ccccc2N1C1=CC(=O)CC(C)(C)C1 (stereo unspecified)	10.7
CCCCCCNS(=O)(=O)c1ccc(NC(=O)C2CCCO2)cc1 (stereo unspecified)	24.0
CCC(CC)C(=O)c1c[nH]c(C(=O)NN)c1	15.3
Cc1ccc(N(CCCCN2C(=O)c3ccccc3C2=O)C(=O)c2ccc(Cl)s2)cc1	11.3
CN1C(=O)/C(=C/c2cc(C(C)(C)C)c(O)c(C(C)(C)C)c2)NC1=S	17.3
O=C(Nc1nc2c(s1)CN(Cc1ccccc1)CC2)C1CCC1	2.6
COc1cc(C(=O)OCC(=O)Nc2cc(-c3cc(C)c(C)cc3C)nn2-c2ccccc2)cc(OC)c1OC	-4.5
CSCCC1Nc2ccc(S(=O)(=O)N3CCOCC3)cc2NC1=O (stereo unspecified)	7.2
CC(C)(C)C(=O)NC(=S)Nc1sc2c(c1C(N)=O)CCC2	-27.3
O=C(N/N=C/c1ccc[nH]1)c1ccccc1O	19.8
O=C1CCCC(=O)C1C(=O)C1CCN(S(=O)(=O)c2ccccc2)CC1	16.9
CCCS(=O)(=O)N1CCCC(C(=O)c2ccccc2OC)C1 (stereo unspecified)	4.4
O=C(CN1C(=O)COc2ccc(S(=O)(=O)N3CCCC3)cc21)N1CCCC1	2.0
CC(C)=NOc1nc(N(C)C)nc(N2CCOCC2)n1	22.5
Cc1nn(CCC(=O)NNC(=S)Nc2ccccc2)c(C)c1Br	19.9
Cc1ccnn1C(C)C(=O)O (stereo unspecified)	5.0

Carrying on:
Compound	Biofilm kill mix
O=C(/C=C/c1cccc([N+](=O)[O-])c1)Nc1ccc(NC(=O)c2cccs2)cc1	9.2
CN(c1ccccc1)S(=O)(=O)c1ccc(C(=O)OCC(=O)NCc2cccs2)cc1	4.3
CC(=O)C1=C(C)NC(C)=C(C(C)=O)C1c1cn(-c2ccccc2)nc1-c1cccs1	-4.7
O=C(CNS(=O)(=O)c1ccccc1)NCC(=O)OCc1ccc(Br)cc1	11.7
CC(=O)Nc1ccc(S(=O)(=O)NCCc2csc(C)n2)cc1	8.9
O=C(CCCn1c(SCC(=O)NCCc2ccccc2)nc2ccccc2c1=O)NCC1CCCO1 (stereo unspecified)	15.8
c1ccc(C2c3c(ccc4ccccc34)Oc3ncn4nc(-c5ccco5)nc4c32)cc1 (stereo unspecified)	2.1
CC1=NNC(=O)C1CCC(=O)N/N=C\c1cccc(Cl)c1 (stereo unspecified)	16.1
Cc1ccc(NC(=O)CN2CCc3ccccc3C2)cc1S(=O)(=O)N1CCOCC1	12.8
COc1ccc(Cl)cc1NC(=S)NN1CCOCC1	17.6
Cc1cc(=O)oc(C)c1C(=O)NNC(=O)C1(C)CC1Br (stereo unspecified)	12.4
COc1ccccc1C(=O)NC(=S)Nc1cc(C(=O)O)ccc1C	17.8
Cc1cc2c(cc1[N+](=O)[O-])NC(CNC(C)C)CC2 (stereo unspecified)	18.5
CCOC(=O)C1CCCN(C(=O)/C=C/c2ccc([N+](=O)[O-])cc2)C1 (stereo unspecified)	11.1
S=c1ccc2ccccc2[nH]1	2.0

2 successive entries already listed:
Compound	Biofilm kill mix
O=C(CNS(=O)(=O)c1ccccc1)NCC(=O)OCc1ccc(Br)cc1	11.7
CC(=O)Nc1ccc(S(=O)(=O)NCCc2csc(C)n2)cc1	8.9

The list continues.
Compound	Biofilm kill mix
Cn1cnnc1SCc1ccc(C(=O)N=Nc2c(O)n(Cc3ccc(Cl)cc3)c3ccccc23)cc1	1.9
COc1ccc(C(=O)c2cc([N+](=O)[O-])ccc2N2CCOCC2)cc1	-12.2
Cc1c(N(C(=O)c2ccccn2)C2(C(=O)NC3CCCCC3)CCCCC2)c(=O)n(-c2ccccc2)n1C	14.6
COc1ccc2c(c1)CCC/C2=N\Nc1nc(C(=O)NN)cs1	12.6
Cc1ccc(S(=O)(=O)NC2CCCCC2)c(C)c1NS(C)(=O)=O	-2.2
CCOC(=O)/C(C#N)=C/C1=C(N2CCOCC2)C(C)(C)OCC1	24.7
COc1ccc(CCNC(=O)c2c(C)nc3ccccn23)cc1	14.0
CC(CCc1ccccc1)NC(=S)NC(=O)c1ccco1 (stereo unspecified)	8.9
COc1ccc(C(=O)OCC[N+]2(C)CCCCC2)cc1	10.6
Cn1c(N)c(C(=O)COC(=O)CC2CC3CCC2C3)c(=O)n(C)c1=O (stereo unspecified)	11.6
O=C1COc2ccc(C(=O)CSc3nc4ccccc4c(=O)n3-c3ccc(Cl)c(Cl)c3)cc2N1	21.1
CC[N+](C)(C)c1cccc(O)c1	9.6
CC(NC(=O)c1ccc(OC2CCN(S(=O)(=O)N(C)C)CC2)cc1)C1CC1 (stereo unspecified)	10.5
COC(=O)/C(NC(C)=O)=C(\C)c1ccc(Cl)cc1	13.9
CCCN1Cc2cccc(C(=O)NC(CC(=O)OCC)c3ccc(C)cc3)c2C1=O (stereo unspecified)	17.2
COC(=O)c1cc(O)c(O)c(O)c1	10.2
CCNc1cc(N2CCCC2)ccc1[N+](=O)[O-]	13.0
COc1ccc(C(=O)CNc2ccccc2CO)cc1	13.8
Cc1ccc(NC(=O)Cn2ccc([N+](=O)[O-])n2)cc1C	34.8
CC(=O)c1c(C)nc(-c2cccc([N+](=O)[O-])c2)n1O	22.6
COC(=O)c1ccccc1NC(=O)C1CCCO1 (stereo unspecified)	13.4
O=C(COC(=O)c1cccnc1Cl)c1ccc(OC(F)F)cc1	-0.2
Cc1ccc(C(=O)N/N=C\c2ccccn2)cn1	15.8
CS(=O)(=O)N1CCc2cc(C(=O)NC3CC3)ccc21	11.8
COC(=O)c1cc2occc2n1Cc1nc(-c2ccccc2Cl)oc1C	8.6
CCNC(=S)NNC(=O)CCn1cc(C)cn1	13.6
NS(=O)(=O)c1ccc(NC(=O)CN2CCCN(S(=O)(=O)c3ccc(F)cc3)CC2)cc1	2.3
O=C(CSCc1ccc(Cl)cc1Cl)Nc1ccccc1C(=O)Nc1ccc(C(=O)O)cc1	11.3
Nc1nnn(CC(=O)N/N=C/c2cccc3ccccc23)n1	7.9
CC(C)c1onc(C(=O)NCc2ccc(Cl)cc2)c1[N+](=O)[O-]	16.7

Given field by field: 3 of the compounds above
Cc1ccc(NC(=O)Cn2ccc([N+](=O)[O-])n2)cc1C
  Biofilm kill mix: 34.8
Cc1ccc(C(=O)N/N=C\c2ccccn2)cn1
  Biofilm kill mix: 15.8
CS(=O)(=O)N1CCc2cc(C(=O)NC3CC3)ccc21
  Biofilm kill mix: 11.8

Continued:
Compound	Biofilm kill mix
CSCCC(NC(=O)c1ccccc1)C(=O)NC1CC1 (stereo unspecified)	6.1
COc1ccc(OC)c(NC(=S)N2CCc3ccccc3C2)c1	10.8
CCCCNS(=O)(=O)c1ccc2nc(-c3cccnc3)cc(C(=O)NCCCOC)c2c1	11.2
Cc1cccc2cc(CN(C(=S)NCC(C)C)C3CCCC3)c(=O)[nH]c12	6.4
Clc1ccc(C[n+]2cc(-c3ccccc3)n3c2CCC3)cc1	7.7
CCC1=NN(C(=O)Cc2ccc([N+](=O)[O-])cc2)C(O)(c2ccc(Br)cc2)C1 (stereo unspecified)	9.1
O=C(NCCCN1CCN(c2ccc(F)cc2)CC1)Nc1ccc([N+](=O)[O-])cc1	25.6
Cc1ccc(SC(=O)c2c(C)noc2-c2cc(C)on2)cc1	-0.5
Cc1ccnc(NC(=O)c2ccoc2C)c1	13.7
NS(=O)(=O)c1ccc(CCn2c(=S)[nH]c3ccc(F)cc3c2=O)cc1	20.3
CCOC(=O)c1c(NC(=O)C(C)Sc2cn(C)c3ccccc23)sc2c1CCC2 (stereo unspecified)	16.0
NC(=O)C1(N2CCCCC2)CCN(C(=S)Nc2ccc(S(N)(=O)=O)cc2)CC1	25.8
CC(C)(C)c1ccc(C(=O)NCc2nnc(SCC(=O)N3CCCc4ccccc43)n2-c2ccccc2)cc1	16.5
CCN(CC)S(=O)(=O)c1cccc(NC(=O)COC(=O)C2CC3C=CC2C3)c1 (stereo unspecified)	5.3
Cc1cccn2cc(CNC(=O)c3ccc(Br)o3)nc12	16.6
c1ccc(C2=Nn3c(Cn4nnc5ccccc54)nnc3SC2)cc1	18.1
O=C(Nc1n[nH]c(C(F)(F)F)n1)c1cccs1	18.2
CN(C)C(CNC(=S)Nc1ccc(F)cc1)c1cccnc1 (stereo unspecified)	13.1
CCn1c(CSCc2ccccc2)n[nH]c1=S	-2.4
C#CCn1c(=NC(=O)CSC(C)=O)sc2cc(F)ccc21	15.8
CN(C)CCCNc1nc(-c2ccccc2)nc2ccccc12	27.6
O=C(COc1ccc(Cl)cc1)N(Cc1ccco1)C1CCS(=O)(=O)C1 (stereo unspecified)	15.4
CCOC(=O)c1cc(NC(=O)COC)ccc1O	23.8
